# Screens from PubChem.
# VDR inh – Inhibitors of the vitamin D receptor (VDR): qHTS | Potency, µM, for inactives: max response, negative = inhibition, hits mostly inhibitors | Vitamin D3 receptor (Homo sapiens), P11473 | VDR-SRC2-3 peptide fluorescence polarization, 2 h | hit rate 0.93% among 400,000; active means well fitted inhibition curve with a large enough effect; inconclusive means small, poorly fitted or top-dose-only effect, or another doubt; inactive means no such curve, though single readings can be large or run the other way; further: series mostly up to about 120 µM
# Target sequence (P11473 whole entry, looked up): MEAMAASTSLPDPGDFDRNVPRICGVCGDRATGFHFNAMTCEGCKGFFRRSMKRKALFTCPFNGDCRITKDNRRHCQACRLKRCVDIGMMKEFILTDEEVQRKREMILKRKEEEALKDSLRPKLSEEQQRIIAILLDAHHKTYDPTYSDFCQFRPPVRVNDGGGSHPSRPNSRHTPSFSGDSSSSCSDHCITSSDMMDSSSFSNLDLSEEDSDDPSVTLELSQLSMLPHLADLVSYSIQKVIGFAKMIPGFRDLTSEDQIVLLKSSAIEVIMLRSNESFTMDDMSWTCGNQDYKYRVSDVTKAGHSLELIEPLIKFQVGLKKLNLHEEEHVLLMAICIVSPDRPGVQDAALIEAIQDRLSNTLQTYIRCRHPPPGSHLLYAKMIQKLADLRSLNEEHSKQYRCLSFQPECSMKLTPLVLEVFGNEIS
#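 Measured by FP: displacement of SRC2-3 coactivator peptide from VDR by library compounds, following a two-hour ambient incubation.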
# * marks the source's active call; other numbers are inactive results; ? = inconclusive. On the % scale 0 is the no-effect control and ±100 the full control effect; potency means the concentration at half of the fitted maximal effect. These rows are one share of the data, so the mix of outcomes need not match the whole.
no.	SMILES	VDR inh
1	Cc1c(C(=O)N2CCOCC2)c(S(=O)(=O)Nc2ccc(C(C)C)cc2)c(C)n1C	?
2	CNC(=S)Nc1cc(C)ccc1OC(F)F	5%
3	Cc1cc(C)cc(N(CC(=O)NC2CCCCC2)C(=O)c2csnn2)c1	10%
4	Cc1cc(=O)n2[nH]c(C)c(-c3ccc(Cl)cc3)c2n1	7%
5	Cc1ccccc1OCC(=O)OCC(=O)Nc1ccc(S(N)(=O)=O)cc1	2%
6	Cc1ccc(-c2nnc(N3CCC(C)CC3)c3ccccc23)cc1C	-26%
7	COc1ccc(CCC(=O)N2CCN(S(=O)(=O)c3cccc(Cl)c3)CC2)cc1	11%
8	Cc1ccc(C2NC(=O)NC3=C2CCc2ccccc23)cc1 (centres undefined)	2%
9	FC(F)(F)c1ccccc1NC(=S)N1CCc2ccccc2C1	13%
10	CCCS(=O)(=O)N1CCCC(C(=O)NCCN2CCC(Cc3ccccc3)CC2)C1 (centres undefined)	5%
11	Cc1ccccc1C(=O)N1[C@@H](C(C)C)COc2cc(Br)ccc2S1(=O)=O	-19%
12	O=C(Oc1ccc(/C=N/NC(=O)c2ccccn2)cc1)c1ccc(Br)cc1	-21%
13	CC1(C)Cc2c(sc3nc(-c4ccccc4)n(N)c(=O)c23)CO1	-25%
14	O=C1CCN(Cc2ccccc2)C=C1c1ccc(Br)cc1	-21%
15	COC(=O)CSc1nnc(-c2ccc(S(=O)(=O)N3CCCC3)cc2)n1C	-6%
16	CN(CC(=O)Nc1ccc(F)cc1)C(=O)COC(=O)CSc1ccc(F)cc1	-5%
17	CN(Cc1cccc(F)c1)C(=O)c1cccc(S(=O)(=O)N2CCN(Cc3ccccc3)CC2)c1	4%
18	O=C1Nc2ccccc2C(=O)C1(Cl)Cc1ccccc1 (centres undefined)	28µM*
19	CCCn1nnnc1-c1cc(Cl)cc(Cl)c1	-7%
20	CCCCOc1ccc(S(=O)(=O)Nc2ccc(NC(C)=O)cc2)cc1	6%
21	CC(C)NC(=O)Cn1c(=O)cnc2ccccc21	-21%
22	COCCNC(=O)C(c1ccc(C)o1)N(C(=O)C(=O)NC1CCCCC1)c1ccc(F)cc1 (centres undefined)	1%
23	Cc1nc2c(C(=O)NCCc3ccccc3)c[nH]n2c(=O)c1Cc1ccc(F)cc1Cl	?
24	COc1ccc(C2CC(=O)c3c(C)nc(N4CCN(C=O)CC4)nc3C2)c(OC)c1 (centres undefined)	2%
25	Cc1cc(NS(=O)(=O)c2ccc(NC(=O)/C=C/c3ccccc3Cl)cc2)no1	-4%
26	COCCn1c(SCC(=O)Nc2nnc(C)s2)nnc1-c1ccco1	-12%
27	CS(=O)(=O)c1ccc(NC(=O)c2cc3c(cc2Cl)N2CCCCCC2=NS3(=O)=O)cc1	-13%
28	O=C(NC1CCCCC1)c1noc2c1CCCCC2	-1%
29	CC12CCC(=O)N1C(C(=O)Nc1nnc(SCc3ccccc3)s1)CS2 (centres undefined)	-26%
30	CCOc1ccc(Cc2nc(-c3nonc3N)no2)cc1OCC	-2%

# Of the compounds above, two contain an NH in an aromatic ring:
no.	SMILES	VDR inh
4	Cc1cc(=O)n2[nH]c(C)c(-c3ccc(Cl)cc3)c2n1	7%
23	Cc1nc2c(C(=O)NCCc3ccccc3)c[nH]n2c(=O)c1Cc1ccc(F)cc1Cl	?

# Continuation.
no.	SMILES	VDR inh
31	CCC(=O)c1ccc(OCC(=O)OCC(=O)c2cc(C)n(C3CC3)c2C)cc1	6%
32	CCOc1cc(-c2noc(-c3cccnc3)n2)ccc1OC	0%
33	Cc1cccc(CCN(CC(=O)NC(C)(C)C)C(=O)c2csnn2)c1	6%
34	Cc1occc1-c1nnc(SCC(=O)Nc2ccc3c(c2)OCO3)n1CC1CCCO1 (centres undefined)	13%
35	COc1ccccc1C(=O)COC(=O)CNS(=O)(=O)c1ccc(C)cc1	-9%
36	CSc1ccc(NC(=O)N2CCC(C(=O)c3ccc(F)cc3)CC2)cc1	6%
37	O=C(Nc1cc(C(F)(F)F)ccc1N1CCOCC1)c1ccc[n+]([O-])c1	-2%
38	CC(=O)Nc1nc(SCCCc2ccccc2)n[nH]1	-12%
39	COc1ccc2[nH]cc(CCNC(=O)Cc3ccc(Cl)cc3)c2c1	7%
40	O=c1c2ccccc2nc(-c2ccccc2)n1O	-4%
41	CCOC(=O)c1c(-c2ccc(C)cc2)csc1NC(=O)c1cc(-c2ccc(C)c(F)c2)on1	6%
42	Cc1cc(C(=O)Cn2nc(C(=O)O)c3ccccc3c2=O)c(C)n1-c1cccc(C(F)(F)F)c1	-7%
43	CCc1ccc(C(=O)c2cn(CC(=O)Nc3ccc(OC)cc3OC)c3ccc(CC)cc3c2=O)cc1	-14%
44	Cc1ccc(NC(=O)C(C)SCc2nc3sc4c(c3c(=O)[nH]2)CCCC4)nc1 (centres undefined)	10%
45	O=C(Nn1cc(C(=O)Nc2ccc(F)cc2F)c2ccccc2c1=O)c1cnccn1	3%

# Random excerpt: two records from the list.
no.	SMILES	VDR inh
45	O=C(Nn1cc(C(=O)Nc2ccc(F)cc2F)c2ccccc2c1=O)c1cnccn1	3%
36	CSc1ccc(NC(=O)N2CCC(C(=O)c3ccc(F)cc3)CC2)cc1	6%

# (next part)
no.	SMILES	VDR inh
46	CC(=O)c1cccc(NC(=O)C(C)OC(=O)c2ccc(S(C)(=O)=O)c([N+](=O)[O-])c2)c1 (centres undefined)	?
47	CCOC(=O)N1CCN(C(=O)c2c(-c3ccccc3)noc2C)CC1	3%
48	COc1ccc(C)cc1S(=O)(=O)N1CCC(C)CC1	-6%
49	CC(C)(C#N)NC(=O)c1ccco1	-4%
50	Cc1cc(C)cc(N=C2NC(=O)/C(=C/c3cccs3)S2)c1	-10%
51	O=[N+]([O-])c1cc(C(F)(F)F)cc([N+](=O)[O-])c1N1CCCNCC1	1%
52	O=C(Nc1nnc(-c2ccc(Cl)cc2)o1)c1cccc(N2C(=O)CCC2=O)c1	-11%
53	CCN(C(=S)NCc1ccccc1)c1ccccc1	6%
54	CSc1nc2sc(-c3ccccc3)cc2c(=O)n1N	-28%
55	COc1ccc(Cl)cc1NC(=O)COC(=O)CCc1cc(OC)c(OC)c(OC)c1	-4%
56	Cc1ccc(S(=O)(=O)NCC(=O)N(c2ccccc2)C(C(=O)NCc2ccccc2)c2ccco2)cc1 (centres undefined)	8%
57	CSc1ncccc1C(=O)OCC(=O)c1ccccc1	-4%
58	O=C(NCCc1ccccn1)C1CCN(S(=O)(=O)c2ccc3ccccc3c2)CC1	-7%
59	Cc1ccc(NC(=O)CN(C)S(=O)(=O)c2cccc3nsnc23)cc1	-9%
60	Cc1ccc(NCCC(=O)c2ccccc2)cc1Cl	11%
61	CCOC(=O)N1CCC(NS(=O)(=O)c2cc(Br)cnc2N)CC1	-11%
62	Cc1cccc(C(=O)Nc2cccc(OCc3cc(=O)n4cc(C)sc4n3)c2)c1	5%
63	Cc1cccc(N=C2NC(=O)/C(=C/c3cccn3C)S2)c1C	10%
64	O=C(Cc1ccccc1)N1CCC(c2nc(-c3ccc(F)cc3)no2)CC1	3%
65	CCOc1ccc(C(=O)NCC(c2ccc3c(c2)OCO3)N2CCN(c3ccc(F)cc3)CC2)cc1 (centres undefined)	-1%
66	O=C(Nc1ccc(F)cc1)c1ccc2c(c1)NC(=O)c1ccccc1S2	-7%
67	Cc1ccc(N(C(=O)CNC(=O)c2ccco2)C(C(=O)NC2CCCC2)c2ccncc2)cc1F (centres undefined)	6%
68	O=C1CC(c2cccnc2)c2cc3c(cc2N1)OCO3 (centres undefined)	5%
69	COc1cc(S(=O)(=O)N(C)C2CCCCC2)c(C)cc1C	-20%
70	CCC1(Cc2ccccc2)NC(=O)c2ccccc2O1 (centres undefined)	-3%
71	Cn1ncc(Br)c1C(=O)N1CCOCC1	-12%
72	COc1ccc(N2C(=O)C(Cl)=C(N3CCCC3)C2=O)cc1	10%
73	COc1cccc(-c2nn(-c3ccccc3)cc2CN(C)C(C)c2ccon2)c1 (centres undefined)	-6%
74	CSc1ccc(S(=O)(=O)NCC(=O)OC(C)C(=O)NCc2ccccc2)cc1[N+](=O)[O-] (centres undefined)	-7%
75	O=C(CCN1CCOCC1)Nc1ccc2c(c1)CCC2	4%
76	Cc1ccc(C(=O)Nc2cccc(S(=O)(=O)N(C)c3ccccc3)c2)o1	-4%
77	CCOCC(=O)Nc1cccc(C(=O)OCC)c1	-9%
78	Cc1ccc(S(=O)(=O)Nc2c(C)n(C)n(-c3ccccc3)c2=O)cc1C(=O)NCc1ccccn1	1%
79	COc1ccc2nc3cccc(OC)c3nc2c1	-18%
80	Cc1onc(-c2ccccc2)c1C(=O)N/N=C/c1ccc([N+](=O)[O-])s1	-5%
81	CCCCn1c(=O)[nH]c(=O)c2c1nc(-c1ccc(-c3ccccc3Br)o1)n2CCOC	1%
82	CCn1cc(CN2CCCC(CO)(Cc3ccc(F)cc3)C2)c2ccccc21 (centres undefined)	-6%
83	CN1CCN(/N=C/c2ccc(-c3ccc([N+](=O)[O-])cc3)o2)CC1	2%
84	CSc1ncccc1C(=O)OCc1ccccc1Cl	-2%
85	O=C(O)c1ccc(/C=N/Nc2nc(N3CCCCC3)nc(N3CCCCC3)n2)cc1	4%
86	COc1ccc(NC(=S)Nc2ccc(OC)cc2OC)c(OC)c1	-12%
87	O=[N+]([O-])c1cccc(-c2nc(NCc3ccccc3)c3ccccc3n2)c1	-12%
88	COc1ccccc1C(=O)Nc1ccccn1	-24%
89	COCC(C)NC(=O)c1ccc(-n2nc(C(F)(F)F)cc2-c2cccs2)cc1 (centres undefined)	2%
90	CCN=C1NN=C(c2ccc(C)cc2)CS1	?

# A draw from above in order of length of the SMILES, low to high.
no.	SMILES	VDR inh
90	CCN=C1NN=C(c2ccc(C)cc2)CS1	?
80	Cc1onc(-c2ccccc2)c1C(=O)N/N=C/c1ccc([N+](=O)[O-])s1	-5%
65	CCOc1ccc(C(=O)NCC(c2ccc3c(c2)OCO3)N2CCN(c3ccc(F)cc3)CC2)cc1 (centres undefined)	-1%
56	Cc1ccc(S(=O)(=O)NCC(=O)N(c2ccccc2)C(C(=O)NCc2ccccc2)c2ccco2)cc1 (centres undefined)	8%

# Remaining list, next part.
no.	SMILES	VDR inh
91	CCCN1C2=NS(=O)(=O)CCN2c2ccccc21	4%
92	CCOC(=O)Cc1nc(-c2ccc(Cl)cc2)n[nH]1	-2%
93	O=C(CSc1nnc(NC2CCCCC2)s1)NCc1ccco1	7%
94	Cc1[nH]cnc1CSCc1ccc(F)cc1	-7%
95	Cc1ccc(S(=O)(=O)Nc2cc3c(cc2NCc2ccccc2)n(C)c(=O)n3C)c(C)c1	-1%
96	CCOC1OC(=O)C(Cl)=C1Nc1ccccc1C (centres undefined)	-15%
97	N#CCn1cc(/C=N/NC(=O)c2cc3c(ccc4ccccc43)o2)c2ccccc21	2%
98	Cc1cc(C)cc(N(CC(=O)Nc2ccccc2)C2=NC3CS(=O)(=O)CC3S2)c1 (centres undefined)	6%
99	Cc1nc2ccc(NC(=O)c3oc4ccc(F)cc4c3C)cc2s1	-4%
100	CC(=O)Nc1ccc(C(=O)CSc2nc3ccccc3n2CC(=O)N2CCCC2)cc1	79µM*
101	COc1ccc(C)cc1NC(=O)NCc1ccccc1F	-24%
102	Cc1ccc(CNC(=O)c2ccc(-c3nc(CN4CCc5ccccc54)c(C)o3)cc2)cc1	5%
103	Cc1ccc(NC(=O)Cn2cc(C(=O)c3ccco3)c3ccccc32)c(C)c1	-2%
104	O=C(NCc1ccc(Cl)cc1)C1=Cc2cc(Cl)ccc2OC1	18%
105	O=C1c2cc(S(=O)(=O)N3CCOCC3)ccc2-c2ccc(S(=O)(=O)N3CCOCC3)cc21	-1%
106	COc1ccc(CN2CCSc3sccc3C2=O)cc1	-2%
107	COc1ccc(NC(=O)c2nc[nH]c2C(=O)N[C@@H](C)c2ccccc2)cc1	2%
108	CN(Cc1ccccc1)c1ccc(C(CC(N)=O)NC(=O)Cc2ccc(Br)cc2)cc1[N+](=O)[O-] (centres undefined)	-8%
109	O=C(O)c1cc([N+](=O)[O-])c(NCc2cccnc2)c([N+](=O)[O-])c1	15%
110	COC(=O)CSc1ncc2c(n1)-c1ccccc1N(Cc1ccccc1C)S2(=O)=O	-5%
111	O=C(N/N=C/c1ccncc1)c1nc(-c2ccccc2)n2c1CCCCC2	-17%
112	O=C(NNS(=O)(=O)c1ccc([N+](=O)[O-])cc1)c1ccncc1	-10%
113	CCOC(=O)N1CCN(C(=O)Cn2ncc3ccccc32)CC1	-23%
114	O=C(CNC(=O)c1cccs1)N/N=C/c1ccco1	-22%
115	CC(C)(C)CN1C(=O)C(=O)NC[C@@H]1Cc1ccc(O)cc1	1%
116	O=C(c1ccc([N+](=O)[O-])o1)N1CCN(c2nc3c(F)cc(F)cc3s2)CC1	-3%
117	COc1ccc(C(=O)NC(=S)NC(C)c2ccccc2)cc1 (centres undefined)	10%
118	COc1cc2c(cc1OC)CN(C(=O)C1CCCN1S(=O)(=O)c1ccc(F)cc1)CC2 (centres undefined)	-7%
119	CCCCCCn1cnc2c(c1=O)c1nc3ccccc3nc1n2Cc1cccs1	0%
120	O=C(COC(=O)c1ccc(O)cc1)NCCC1=CCCCC1	-13%
121	Cc1ccc(NC(=O)C=NOCC(=O)Nc2cc(C)cc(C)c2)cc1	-11%
122	CC(CNC(=O)c1ccc(CSc2nc3ccncc3n2Cc2cccc(F)c2)cc1)c1ccccc1 (centres undefined)	0%
123	O=C(O)CSc1nnc(-c2ccc(Cl)cc2Cl)n1-c1ccc(Br)cc1	25%
124	CCOC(=O)N1CCN(c2ccc(C(=O)c3cccc(F)c3)cc2)CC1	-6%
125	CCCCOC(=O)CSc1ncnc2sc3c(c12)CCC(C)C3 (centres undefined)	-17%

# With a hit mark in VDR inh, among the entries above:
no.	SMILES	VDR inh
18	O=C1Nc2ccccc2C(=O)C1(Cl)Cc1ccccc1 (centres undefined)	28µM*
100	CC(=O)Nc1ccc(C(=O)CSc2nc3ccccc3n2CC(=O)N2CCCC2)cc1	79µM*
